Screens (PubChem)
CapD inh = CapD enzyme inhibition; purified CapD enzyme, fluorescence intensity read-out; stronger effect = lower value; some hits fall short of the stated cut; z-score (concentration not given with the values); 140,000 tested, 0.23% active; AID 492967;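 active = z-score under -4 in either of two replicates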;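 note: stock transfer was 100 nL into about 40 µL; score is relative to mean and spread of the plate; one replicate is shown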
AID504770 = growth inhibitors of E. coli YBA685 in a screen for V. cholerae RctB (chromosome II replication) inhibitors. E. coli YBA685 rctB-dependent plasmid, OD600 growth, 3 h; stronger effect = lower value. z-score (concentration not given with the values). 130,000 tested, 0.27% active;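 active = z-score under -2 on both plates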;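 note: wells of about 30 µL received 100 nL stock; score is relative to mean and SD of the test wells; the first replicate is given; strong numbers were not always called active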
An asterisk follows results filed as active; . = no result given; & = joins results of further samples. A portion of the library; rates above refer to the full screens.

The line under a structure holds: CapD inh, AID504770
> CCC(C)NC(=O)CSc1nc2ccsc2c(=O)n1-c1cccc(Cl)c1Cl (stereo not given)
 : -1.6, 0.5
> CC1=C(C(=O)OCCOc2ccccc2)C(c2cc3c(cc2Cl)OCO3)C2=C(CC(C)(C)CC2=O)N1 (stereo not given)
 : 38, .
> COCCCNC(=O)CSc1nc(NCCc2ccccc2)c2ccccc2n1
 : 0.62, .
> CCCCC(O)(c1ccc(OC)cc1)C(CN1CCOCC1)c1ccccc1 (stereo not given)
 : -1.7, -0.15
> CC(=O)N1CCN(c2ccc(NC(=O)CSc3nc4ccccc4o3)cc2)CC1
 : -0.44, 2.6
> COc1ccc([C@H]2CC(=O)c3c(O)cc(O)cc3O2)cc1O
 : -1.2, -0.5
> Nc1ccccc1SC(CC(=O)c1ccccc1)c1ccc([N+](=O)[O-])cc1 (stereo not given)
 : -0.055, .
> CCN(CC)C(=O)Cn1cc(S(=O)(=O)CC(=O)N2CC(C)OC(C)C2)c2ccccc21 (stereo not given)
 : ., -0.8
> CCN(C(=O)Cn1nnc(-c2ccc(Cl)cc2)n1)C1CCS(=O)(=O)C1 (stereo not given)
 : ., 0.55
> COc1ccc(C(=O)NC(CO)(CO)CO)cc1OC
 : 0.4, -0.15
> N#Cc1c2c(c(N3CCCC3)n3c1nc1ccccc13)CCC2
 : -0.36, .
> CCc1cnc(/N=C/NO)nc1-c1c(F)cccc1F
 : -0.45, -0.9
> COC(=O)C(NC(=O)c1ccc(OC)cc1)(Nc1sc2c(c1C#N)CCC(C)C2)C(F)(F)F (stereo not given)
 : 0.14, .
> O=C(NCc1ccc(-c2cccs2)s1)NC(=O)c1ccccc1
 : 24, 0.35
> CN(C)CCCN1C(=O)CCCCc2sc3c(c21)CCCC3
 : 0.25, -0.2
> CNC(=O)CCc1nc2ccccc2n(-c2ccc(OC)cc2)c1=O
 : ., 1.5
> Cc1cc(SCc2ccccc2)n2ncnc2n1
 : -0.43, -1.5
> Cc1cc(S(=O)(=O)NCc2nc(N)n(S(=O)(=O)c3ccc(F)c(C)c3)n2)ccc1F
 : 0.015, 0.8
> CCNc1nc(NCC)n2c(SCC(=O)c3ccccc3)nnc2n1
 : -0.8, .
> Cc1cc(=O)oc2c(C)c3oc(C(=O)c4ccc(Cl)cc4)c(C)c3cc12
 : -0.29, .
> Cn1nnnc1SCCCNCc1ccsc1
 : -0.15, -1.1
> Cc1ccc(S(=O)(=O)N2CCCC2c2nc3ccccc3s2)cc1C (stereo not given)
 : ., -0.4
> Cc1ccc2c(nc3s/c(=C\c4ccc(-c5ccccc5C(=O)O)o4)c(=O)n32)c1C
 : -0.99, .
> Nn1cc(-c2ccccc2)[nH]c1=S
 : ., 1.1
> O=C(Cn1ncc2ccsc2c1=O)NCc1ccccc1
 : -0.29, -0.8
> Cc1ccn2cc(-c3cccc(NC(=O)CCC(=O)O)c3)nc2c1
 : ., -0.9
> Cc1ccnc2c1C(=Nc1ccccc1)c1ccccc1-2
 : -0.15, .
> O=C(c1cnc(N2CCCC2)nc1)N1CCOCC1
 : 2.4, -1.7
> CC1CN(C(=S)Nc2ccccc2)CC(C)O1 (stereo not given)
 : 0.085, -0.6
> Cc1ccc(-n2c(C)ccc2-c2ccccc2)cc1
 : 0.45, -0.25
> O=C1/C(=C/c2ccc3c(c2)OCO3)NC(=S)N1C1CCCCC1
 : -0.3, 1.8
> CC(C)NC(=O)CSc1nc2ccccc2n1CC(=O)NC(C)C
 : ., -0.3
> CN1CCC(=NNC(=O)Cc2cn3ccsc3n2)CC1
 : ., -0.05
> CCc1ccc(/C=C2/C(=O)N(c3ccccc3)N=C2C)cc1
 : -1.1, 0.65
> COC(=O)c1cccc(NC(=O)C2CC2)c1
 : 0.72, -0.45
> O=C(O)CC1=C(c2ccccc2)CCC1=O
 : -0.45, -0.75
> O=c1[nH]c2ccc(Cl)cc2c(=O)n1Cc1ccccc1
 : 1.7, 0.15
> CCn1c(=NC(=O)C2CC2)sc2cc(Cl)ccc21
 : -0.43, 0.7
> CCCCOC(=O)c1ccc2c3c(onc13)-c1ccccc1C2=O
 : 0.045, 0.65
> CCN1CCc2c(OC)cccc2C1=O
 : ., -0.4
> CCn1c2ccccc2c2cc(CN3CCC(NS(=O)(=O)c4ccccc4F)C3)ccc21 (stereo not given)
 : 15, .
> O=C1C(O)=C(Cc2ccccc2)CN1Cc1ccccc1
 : 0.73, 0.05
> COc1ccccc1NC(=O)/C=N/OCc1nc2sc(C)c(C)c2c(=O)[nH]1
 : ., -0.3
> NC(=O)c1ccccc1OCc1cc2c(cc1Br)OCO2
 : ., 1.5
> c1ccc(Cn2c3ccccc3n3nc(-c4ccccc4)nc23)cc1
 : 80, -0.15
> O=C(CC1SC(N2CCCC2)=NC1=O)Nc1ccc(C(=O)N2CCN(c3ccccn3)CC2)cc1 (stereo not given)
 : ., 0.85
> O=C(OCc1cc(Cl)c2c(c1)OCCO2)C12CC3CC(CC(O)(C3)C1)C2
 : ., 0.55
> CC(C)(C)Nc1nc(Oc2ccc(=O)n(-c3ccccc3)n2)nc(N2CCOCC2)n1
 : -0.005, -0.7
> O=C(COCc1cc2cccc3c2n(c1=O)CCC3)NCCN1CCOCC1
 : 10, .
> CC1CCCCN1C(=O)c1cc(-c2ccccc2O)on1 (stereo not given)
 : 0.12, 1.1
> O=C1c2ccccc2-c2nn(C(=O)c3ccco3)c3cccc1c23
 : 1.7, 0.2
> CCOC(=O)c1c(C)oc2c(Br)cc(NS(=O)(=O)c3ccc(Cl)cc3)cc12
 : 0.12, .
> COC(=O)C1=C(N)N(c2ccc(C)cc2)C2=C(C(=O)CCC2)C1c1ccc(OC)cc1 (stereo not given)
 : -0.36, -0.25
> O=C(O)CCc1nn2c3ccccc3nc2n(CCN2CCCCC2)c1=O
 : 13, 0
> Cc1cc(C)nc(SCC(=O)NN)n1
 : 0.13, -0.85
> Cc1ccc(C(=O)C2CCN(S(=O)(=O)c3ccc(Cl)c(Cl)c3)CC2)cc1
 : 0.1, .
> C=CCNC(=S)Nc1ccc(Br)cc1
 : ., -0.5
> CC1CN(C(=O)CSc2nc(-c3ccco3)cc(C(F)(F)F)n2)CC(C)O1 (stereo not given)
 : -0.65, -0.2
> CO[C@H]1/C=C/O[C@@]2(C)Oc3c(C)c(O)c4c(O)c(c(/C=N/N5CCN(C)CC5)c(O)c4c3C2=O)NC(=O)/C(C)=C\C=C\[C@H](C)[C@H](O)[C@@H](C)[C@@H](O)[C@@H](C)[C@H](OC(C)=O)[C@@H]1C
 : -0.28, .
> COC(C(=O)NN=C1CCN(C)CC1)c1ccccc1 (stereo not given)
 : 0.21, 0.3

The list goes on:
The line under a structure holds: CapD inh, AID504770
> O=S(=O)(NCc1csc(-c2cccnc2)n1)c1ccc2c(c1)CCCC2
 : -0.6, -0.85
> Cc1ccc(-c2nc3ccc(C(F)(F)F)cc3nc2-c2ccc(C)cc2)cc1
 : 0.62, .
> Cc1nnsc1C(=O)Nc1ccccc1C#N
 : -1.2, 2.3
> NC(=O)c1c(-c2ccc(F)cc2)noc1N
 : 0.12, -2
> CCN(CC)C(=O)CSc1nnc(-c2ccccc2Cl)o1
 : 12, 0
> CC(C)(C)n1nc2c(c1NC(=O)CC1CCCCC1)CS(=O)C2 (stereo not given)
 : 0.34, -0.9
> O=c1c([N+](=O)[O-])cc(C(F)(F)F)cn1Cc1c(Cl)cccc1Cl
 : -0.36, .
> CCCCOc1ccccc1C1C(C(=O)OC)=C(C)NC2=C1C(=O)CC(c1ccc(OC)c(OC)c1)C2 (stereo not given)
 : -0.085, .
> O=C1/C(=C/c2ccc(Cl)cc2)CC/C1=C\c1ccc(Cl)cc1
 : -0.23, .
> CCCCN1C(=O)CNC1=S
 : ., 1.5&-0.35
> Cc1ccc(OCC(=O)NC2CC2)cc1
 : 0.91, -0.6
> Cn1nc(CC(=O)N2CCN(c3ccccc3)CC2)c2ccccc2c1=O
 : 1.1, -0.25
> CC1CN=C(NCCSc2ccc(Cl)cc2)S1 (stereo not given)
 : ., 0.7
> O=C(O)CCC(=O)N1N=C(c2cccs2)CC1c1ccc(Br)cc1 (stereo not given)
 : 15, .
> N#C/C(=C\Nc1ccc(C(=O)O)cc1)c1nc2ccccc2[nH]1
 : -0.44, -0.6
> CCOC(=O)c1sc2nc(C)nc(NC3CC3)c2c1C
 : ., -0.45
> CC(C)(C)C(=O)NCc1nc2ccccc2n1Cc1ccccc1F
 : 0.41, 0.05
> Cc1nc(SCC(N)=O)c2c3c(sc2n1)CCCC3
 : ., -0.45
> c1ccc(-c2nnc3sc(-c4ccc5c(c4)OCO5)nn23)cc1
 : 0.01, 0.8
> Cc1cccc(-n2nnnc2C2(N3CCCCC3)CCCCC2)c1
 : 6.1, .
> C=CCN(CC=C)C(=O)CCN1C(=O)c2ccccc2C1=O
 : ., 0
> CC1CCCN(CCCNC(=O)c2ccc(CS(=O)(=O)c3c(Cl)cccc3Cl)o2)C1 (stereo not given)
 : -0.28, -0.3
> CCOc1ccc(CC(=O)Nc2c(C(N)=O)oc3ccc(Cl)cc23)cc1OCC
 : -0.17, -0.55
> COC(=O)C1=C(C)Nc2nnnn2C1c1cc(OC)ccc1OC (stereo not given)
 : -0.41, .
> O=C(c1ccccc1)c1ccccc1OCc1nc2ccccc2s1
 : 0.045, -0.05
> O=C(Nc1cccc2nsnc12)c1ccc(Cl)cc1
 : 2.1, 0.1
> COc1ccc(N2C(=O)CSC2c2cc3c(cc2Br)OCO3)cc1Cl (stereo not given)
 : -0.33, .
> O=C(c1ccccc1)N1CCN(S(=O)(=O)N2CCOCC2)CC1
 : ., -0.45
> CC1Nc2ccc(C(=O)N3CCC4(CC3)OCCO4)cc2NC1=O (stereo not given)
 : 12, -0.7
> Cc1cccc(C)c1NC(=O)CCCSc1nnc(N)s1
 : ., 0.65
> COc1ccc(C2=NN(S(C)(=O)=O)C(c3ccccc3OC)C2)cc1 (stereo not given)
 : -0.61, -0.75
> CCOc1cc(/C=C2/SC(=S)N(C(CCC(=O)O)C(=O)O)C2=O)ccc1O (stereo not given)
 : -3, .
> COCc1cc(C)nc2sc(C(=O)c3ccccc3)c(NC(=O)c3ccco3)c12
 : 0.66, .
> O=C(NC(=S)NCc1ccco1)c1ccccc1
 : -0.23, -0.35
> CCN(CC)c1ccc(/C=C(/C#N)c2ccc3c(c2)OCO3)cc1
 : -1.7, -0.1
> CCOC(=O)c1sc(SCCS(=O)(=O)c2ccc(Cl)cc2)c2c1CCCC2=O
 : 0.74, -1
> C=CCN1C(=O)/C(=c2\sc3n(c2=O)C(c2ccc(OC(=O)c4ccco4)cc2)C(C(=O)OCC)=C(C)N=3)c2ccccc21 (stereo not given)
 : -1.2, .
> COCCNC(=O)C1c2ccccc2C(=O)N(CCOC)C1c1cccs1 (stereo not given)
 : -0.52, 1.6
> CC(=O)Nc1ccc2nc(Nc3nc4ccc(C(C)C)cc4s3)sc2c1
 : 0.035, 0.1
> COC(=O)c1ccccc1NC(=O)CSc1nnc(CSc2nc(C)cc(C)n2)o1
 : 29, 0.2
> CCCc1cc(=O)[nH]c(SCC(=O)/C(C#N)=C(\C)N)n1
 : ., -0.1
> CC1(C)CC(=O)C(C(NC(=O)c2ccncc2)(C(F)(F)F)C(F)(F)F)=C(NCc2ccco2)C1
 : 0.97, 0.85
> O=c1[nH]c2nonc2nc1/C=C(\O)c1ccccc1
 : 0.69, -0.4&2
> CC(=O)Nc1ccc(S(=O)(=O)NC2CCCCC2NS(=O)(=O)c2ccc(NC(C)=O)cc2)cc1 (stereo not given)
 : -0.2, -0.7
> Cc1nc2cc(C(F)(F)F)ccc2n1C1CCN(C(=O)C2CC2)CC1
 : ., -0.3
> Cn1c(CS(=O)(=O)c2ccc(Cl)cc2)c(C#N)c2ccccc21
 : ., -1.1
> O=C(CCC(=O)N1CCN(S(=O)(=O)Cc2ccccc2)CC1)c1cccs1
 : ., 0.95
> COc1ccc(NC(=O)Cn2c(=O)n(-c3ccccc3)c(=O)c3ccc(C(=O)NCc4ccco4)cc32)cc1
 : 1.1, -0.9
> Clc1ccc(-c2ncnn2-c2cccc(Cl)c2)cc1
 : -0.29, -0.15
> CCSC1=C(C#N)C(=O)NC(c2ccc(N(C)C)cc2)S1 (stereo not given)
 : -3.2, -0.45
> NC(=O)NC(=S)NC(=O)c1ccccc1Cl
 : 2.8, -0.65
> S=C1NC2(CCCCC2)Nc2sc3c(c21)CCCC3
 : -0.5, .
> O=S(=O)(NCCc1c[nH]c2ccc(Cl)cc12)c1cccc(Br)c1
 : 0.11, .
> O=C(O)C(Cc1ccco1)P(=O)(O)CN1CCOCC1 (stereo not given)
 : 0.005, -0.05
> Cn1nnc(NC(=S)NC(=O)c2cccs2)n1
 : -0.47, -1.4
> Cc1ccccc1CNC(=O)CN(c1ccccc1Br)S(C)(=O)=O
 : 0.81, .
> Cc1c(CNC(=O)c2ccc(C(F)(F)F)cc2)sc2ccccc12
 : -0.3, 2.1
> CC(C(=O)NCCC1=CCCCC1)n1ncn2cccc2c1=O (stereo not given)
 : -0.4, 0.7
> Cc1ccc(CC(N)=S)cc1
 : -0.4, .
> Cc1cccc(C2OC3(C(=O)c4ccccc4C3=O)C3C(=O)N(c4ccccc4Br)C(=O)C23)c1 (stereo not given)
 : 0.56, .

Compounds listed so far that have a tert-butyl group:
The line under a structure holds: CapD inh, AID504770
> CC(C)(C)Nc1nc(Oc2ccc(=O)n(-c3ccccc3)n2)nc(N2CCOCC2)n1
 : -0.005, -0.7
> CC(C)(C)n1nc2c(c1NC(=O)CC1CCCCC1)CS(=O)C2 (stereo not given)
 : 0.34, -0.9
> CC(C)(C)C(=O)NCc1nc2ccccc2n1Cc1ccccc1F
 : 0.41, 0.05

Reformatted with tabs: four of the compounds above.
smiles	CapD inh	AID504770
CC1Nc2ccc(C(=O)N3CCC4(CC3)OCCO4)cc2NC1=O (stereo not given)	12	-0.7
Cc1cccc(C)c1NC(=O)CCCSc1nnc(N)s1	.	0.65
COc1ccc(C2=NN(S(C)(=O)=O)C(c3ccccc3OC)C2)cc1 (stereo not given)	-0.61	-0.75
CCOc1cc(/C=C2/SC(=S)N(C(CCC(=O)O)C(=O)O)C2=O)ccc1O (stereo not given)	-3	.
